Sa growth inh – S. aureus growth inhibition at 42 and 30 °C, primary screen, LtaS inhibitor project, RN4220, two temperatures; OD600, 20 h, 42 °C; stronger effect = lower value; relative growth, % (concentration not given with the values); 170,000 tested, 0.53% active; AID 720641, 2013;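 active means growth at 42 °C up to 50% and 20 or more points under that at 30 °C, or under 10% at both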;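 further: 300 nL library stock went into each well; scaled to the means of positive and negative controls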
HCMV UL50-53 inh – inhibitors of HCMV UL50-UL53 interaction, biochemical, HTRF. HCMV UL50-UL53 nuclear egress complex (human cytomegalovirus). normalized percent inhibition. inhibition, % (concentration not given with the values). 190,000 tested, 0.15% active. AID 1918969, 2023;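 active means both replicates at 50% or more, plus weaker picks with an unusually low signal ratio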;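 further: stock transfer was 100 nL into about 20 µL; 0% = negative control wells and 100% = wells with untagged competitor protein; inactives centre near -12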
GIV Gai3 FP – inhibitors of GIV peptide binding to Galpha-i3, primary screen, biochemical, fluorescence polarization, FITC-GIV GBA peptide, rat Galphai3. Guanine nucleotide-binding protein G(i) subunit alpha-3 (Rattus norvegicus), P08753. percent of control (FP), % (no concentration beside the values). 210,000 tested, 0.42% active. AID 1224905, 2016. 90 min; stronger effect = lower value; scaled: aluminum fluoride 0%, vehicle 100%;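 active means replicate mean at 85% of control or lower, very high polarization wells dropped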;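 further: wells of about 15 µL received 100 nL stock; the first replicate is given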
Target sequence (P08753 whole entry, looked up): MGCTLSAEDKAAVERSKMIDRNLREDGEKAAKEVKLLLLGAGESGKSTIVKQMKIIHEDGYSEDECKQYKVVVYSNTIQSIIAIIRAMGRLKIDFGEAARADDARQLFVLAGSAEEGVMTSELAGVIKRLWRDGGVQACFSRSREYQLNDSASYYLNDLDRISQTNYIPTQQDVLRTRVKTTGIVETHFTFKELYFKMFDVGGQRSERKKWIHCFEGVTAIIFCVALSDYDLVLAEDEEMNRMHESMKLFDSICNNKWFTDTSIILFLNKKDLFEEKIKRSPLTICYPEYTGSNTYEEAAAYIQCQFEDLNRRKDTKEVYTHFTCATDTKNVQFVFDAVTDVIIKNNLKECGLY
Sa growth inh second temp – also measured in Sa growth inh; calls as there; relative growth, %; measured here: growth at 30 °C;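 optical density after 20 h as mean of two plates; 100% = untreated growth and lower means inhibition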
Active calls of the source: *; . = no result given; & = joins results of further samples.

SMILES | Sa growth inh | Sa growth inh second temp | HCMV UL50-53 inh | GIV Gai3 FP
CC(C)CNC(=O)NC1(C(F)(F)F)Oc2ccc(Cl)cc2O1 (centres undefined) | 98 | 86 | . | 97
COc1cccc(CCNC(=O)C2CCCN(c3ncnc4c3nc3n4CCCCC3)C2)c1OC (centres undefined) | 93 | 90 | -35 | 98
CCc1ccccc1NC(=O)Nc1cnccn1 | 104 | 96 | 20 | 106
COc1ccc(Cl)cc1NC(=O)Cn1c(=O)n(Cc2ccc(F)cc2)c(=O)c2cccnc21 | 106 | 76 | -26 | 104
CN1CCN(CCN2CCn3c2nc2ccccc23)CC1 | 95 | 89 | -13 | 102
N#Cc1c(-n2ncnc2-c2ccc(F)cc2)sc2c1CCCCC2 | 103 | 91 | -56 | 123
Cc1nn(C)c(Cl)c1S(=O)(=O)Nc1ccc(Br)cc1 | 95 | 83 | -1 | 101
O=C(Nc1cccc(-c2nnc(-c3ccccc3)o2)c1)C1CC1 | 116 | 90 | -10 | 102
Cc1ccc(C)c(OCCSc2ncccn2)c1 | 81 | 85 | -18 | .
CCn1cc(S(=O)(=O)CC(=O)Nc2ccc(C)cc2)c2ccccc21 | 91 | 89 | -13 | 108
C=CC(=O)NC(C)(C)CCN1CCOCC1 | 89 | 91 | 1 | .
O=C(Cn1cnc(S(=O)(=O)N2CCCCC2)c1)NCCc1ccccc1 | 99 | 85 | -31 | 106
COc1ccccc1CNC(=O)c1ccc(Cn2c(SCc3ccccc3)nc3cccnc32)cc1 | 128 | 115 | . | 97
Cc1nc(-c2c(-c3ccccc3)noc2C)cs1 | 100 | 54 | 5 | 102
O=S(=O)(Nc1ccc(Cn2cnc(-c3nc(-c4cccc(F)c4)no3)c2)cc1)c1cccc(F)c1 | . | . | -21 | 107

Of the compounds above, these have an aryl methoxy group.
SMILES | Sa growth inh | Sa growth inh second temp | HCMV UL50-53 inh | GIV Gai3 FP
COc1cccc(CCNC(=O)C2CCCN(c3ncnc4c3nc3n4CCCCC3)C2)c1OC (centres undefined) | 93 | 90 | -35 | 98
COc1ccc(Cl)cc1NC(=O)Cn1c(=O)n(Cc2ccc(F)cc2)c(=O)c2cccnc21 | 106 | 76 | -26 | 104
COc1ccccc1CNC(=O)c1ccc(Cn2c(SCc3ccccc3)nc3cccnc32)cc1 | 128 | 115 | . | 97

(cont.)
SMILES | Sa growth inh | Sa growth inh second temp | HCMV UL50-53 inh | GIV Gai3 FP
CC(C)(C)c1cn2c3ccccc3nc2n1CCN1CCCC1 | 99 | 98 | 11 | .
CCC(C)(C)c1ccc(Oc2ccc(NC(=O)CSc3cccc[n+]3[O-])cc2)cc1 | 128 | 88 | -27 | .
O=c1c2ccccc2nc2n1-c1ccccc1CCC2 | 106 | 102 | 2 | 109
N#Cc1ccsc1NC(=O)CSCC(=O)O | 95 | 84 | -4 | 104
COc1ccc(Cc2nc3c4cnn(-c5cccc(F)c5)c4ncn3n2)cc1 | 110 | 84 | -14 | 97
O=C(CN1C(=O)C2CC=CCC2C1=O)OCc1cc(=O)n2cc(Br)ccc2n1 (centres undefined) | 84 | 98 | -39 | .
CN(C)S(=O)(=O)c1ccc(C(=O)Nc2cccc3c2C(=O)c2ccccc2C3=O)cc1 | . | . | -5 | 100
CCOC(=O)c1c(C)[nH]c(CCC(=O)NCc2cc(OC)c(OC)c(OC)c2)c1C | 74 | 88 | . | 103
CC(C)(C)C(C)(C#N)Nc1ccc(Cl)cc1 (centres undefined) | 101 | 97 | -8 | 106
CCN(CC)c1ccc(/C=C2/N=C(c3cc(OC)c(OC)c(OC)c3)OC2=O)cc1 | . | . | -17 | 277
Cc1oc2cc(O)ccc2c(=O)c1Oc1ccc(-c2ccccc2)cc1 | 116 | 94 | -2 | .
Cc1onc(-c2ccccc2Cl)c1C(=O)Nc1c(-n2cnnc2)nn(C)c1C | . | . | -25 | 103
CCCOC(=O)CSc1nc(N)c(C#N)c(-c2ccc(C)cc2)c1C#N | 81 | 81 | . | 99
CCCSc1ncc(Cl)c(C(=O)Nc2ccc(S(=O)(=O)Nc3ncccn3)cc2)n1 | 101 | 87 | -8 | 104
Cc1ccc(-c2nnc(SCC(=O)Nc3ccccc3)c3ccccc23)cc1S(=O)(=O)N1CCOCC1 | . | . | 4 | 100
CSc1nc(N(C)C)nc(N2CC(=O)N(CCNS(=O)(=O)c3ccc(C)cc3)C2=N)n1 | . | . | -8 | 103
COc1ccc(N)c2nc(C)c(C)nc12 | 109 | 79 | -53 | 100
FC(F)(F)c1cnc(-n2nc(Br)nc2Br)c(Cl)c1 | . | . | -11 | 104
O=C(Nc1ccccc1)c1nnc(CCC(=O)N2CCN(c3ccc(F)cc3)CC2)s1 | . | . | -10 | 97
CC1=C(C)CC(C(=O)c2ccccc2)C(C(=O)O)C1 (centres undefined) | 148 | 80 | -6 | 100
COc1ccc2nc(NC(=O)c3nc(S(=O)(=O)Cc4cccc(C)c4)ncc3Cl)sc2c1 | 93 | 76 | -19 | 110
CCOC(=O)C(C)NC(=O)C1CCN(c2ncnc3c2nc2n3CCCCC2)CC1 (centres undefined) | 109 | 86 | . | 101
Cc1ccc(CNCc2ccncc2)cc1 | 129 | 97 | 2 | .
CCCCN1C(=O)C2(/C(=C(/O)c3ccc(C)c(F)c3)C(=O)C(=O)N2CCN(C)C)c2ccccc21 (centres undefined) | 94 | 87 | -23 | 105
N#CCC(=O)N=Cc1ccc(Cl)cc1Cl | 107 | 81 | . | 101
COc1cc(OC)c(NC(=O)C2CCCN2c2nn3c(=O)cc(C)nc3s2)cc1Cl (centres undefined) | . | . | -12 | 103
C/C=C/c1ccc(OCC(O)CN(C)C2CCCCC2)c(OC)c1 (centres undefined) | 91 | 93 | -8 | .
CCCCCNC(=O)Cc1csc(COc2cccc(C)c2)n1 | . | . | -17 | 103
CC(C)Sc1nc2[nH]ncc2c(=O)[nH]1 | 110 | 86 | -22 | 105
Cc1nnc(SCC(=O)N(C)Cc2ccccc2)n1Cc1ccccc1 | 94 | 97 | -38 | .
CC(C)CNC(=O)c1cc(-c2ccc(F)cc2)no1 | 103 | 97 | . | 106
O=c1[nH]c2ccc(Cl)cc2c(-c2ccccc2)c1Sc1nc2ccccc2o1 | . | . | -12 | 103
CCOC(=O)Cc1n[nH]c(=S)n1C1CCCC1 | 99 | 101 | 20 | .
Cn1c(SCC(=O)NC2CCCC2)nc2c(-c3ccccc3)csc2c1=O | . | . | -7 | 100
NS(=O)(=O)c1ccc(N2N=C(/C=C/c3ccccc3)CC2c2ccccc2)cc1 (centres undefined) | . | . | -33 | 99
O=C(O)CCNc1nc2ccccc2s1 | 116 | 95 | 3 | .
COc1ccc(OC)c(CCNC(=O)CN2C(=O)CC(C)(C)S(=O)(=O)c3ccccc32)c1 | 86 | 89 | 2 | 98
CCOC(=O)c1nn(-c2ccc(C(F)(F)F)cc2)cc(Sc2nnc(C(F)(F)F)n2C)c1=O | 123 | 87 | -53 | 104
O=C(c1ccc(Cl)cc1)n1cc2c(n1)-c1cc(Cl)ccc1SC2 | 93 | 93 | -25 | 110
COCCCn1cnc2oc3nc4ccccc4nc3c2c1=O | 98 | 92 | -138 | .
CCc1nn(CC(=O)NCCCN2CCN(CC)CC2)c(=O)c2cc3occc3n12 | 91 | 90 | 15 | 110
COc1cc(OC)c(NC(=O)N2CCN3CCCCC3C2)cc1Cl (centres undefined) | 71 | 85 | . | 98
CSc1nc(-c2ccccc2)c2cc(Cl)ccc2n1 | 111 | 81 | . | 99
Cc1cc2nc(C)n(CCCN)c2cc1C | 86 | 89 | -12 | 104
OC(CNCc1ccco1)c1ccccc1 (centres undefined) | 93 | 89 | -10 | 94
CCOC(=O)c1c(C)n(C)c2c1cc(OC(=O)c1ccc(OC)cc1)c1ccccc12 | . | . | -4 | 97
CCC(OC(=O)C1=Cc2ccccc2OC1)C(=O)NC1CCCC1 (centres undefined) | 100 | 97 | -16 | 100
Cc1ccc(-c2nn3c(C)nnc3c3ccccc23)cc1S(=O)(=O)N1CCCC1 | 104 | 82 | -9 | 105
CC1=CC(C)=NC2=C(c3ccccc3)S/C(=C3/C(=O)N(C)C(=S)N3C)N12 | 91 | 68 | -16 | 108
O=S(=O)(Nc1nc2ccccc2nc1N1CCCC1)c1ccccc1 | 122 | 105 | 1 | .
COc1cc2c(cc1OC)C1C(C(=O)NCC3COc4ccccc4O3)c3ccccc3C(=O)N1CC2 (centres undefined) | 93 | 90 | 8 | 103
O=C(Nc1sccc1C(=O)NC1CCCC1)c1ccc(Br)s1 | 79 | 57 | -10 | 126
O=C(CSc1nnnn1C1CC1)N1c2ccccc2SCC1c1ccccc1 (centres undefined) | 100 | 72 | -30 | .
Cc1cc(C)n2ncc(C(=O)Nc3ccc(C)c(C)c3)c2n1 | 106 | 83 | 5 | 106
CCCCn1c(N)c(N(C)C(=O)CSc2nnc(-c3ccc(F)cc3)o2)c(=O)[nH]c1=O | 80 | 91 | -24 | .
O=C(c1cccc(Br)c1)c1nccn1-c1ccccn1 | 102 | 67 | -36 | .
CN(C)C(=O)CCCc1nc(-c2ccc(Cl)cc2)no1 | 88 | 88 | . | 104
O=C(CCc1ccccc1)NCc1ccc2c(c1)CCN2C(=O)c1ccccc1 | 95 | 75 | . | 101
CCn1c2ccccc2c2cc(CN3CCN(Cc4ccccc4Cl)CC3)ccc21 | 97 | 81 | -38 | 104
Cn1c(CCc2ccccc2NC(=O)CCc2ccccc2)nc2ccccc21 | . | . | -26 | 106
Further results follow:
SMILES | Sa growth inh | Sa growth inh second temp | HCMV UL50-53 inh | GIV Gai3 FP
CCOc1cccc(Nc2ccc(-c3ccc(OC)cc3)nn2)c1 | 96 | 86 | -9 | 100
N#Cc1c(Br)cnn1Cc1ccc(Cl)cc1 | 94 | 101 | 3 | 109
CCNC(=O)N1CCCC(c2cccc(C(=O)N3CCC(C(=O)OCC)CC3)c2)C1 (centres undefined) | . | . | -11 | 107
COc1ccc(C2CC(=O)C3=C(C2)Nc2ncnn2C3c2ccc(O)cc2)cc1 (centres undefined) | . | . | -17 | 103
Cc1ccc(CNC(=O)Cn2c(C)nc3ccccc32)cc1 | . | . | -19 | 102
CCN1CCC2(CC1)Oc1ccccc1C1CC(c3ccccc3)=NN12 (centres undefined) | 91 | 70 | -40 | 102
COCCCNC(=O)c1ccc(C)c(-n2c(C)nc3cccnc32)c1 | 107 | 84 | . | 108
CCOC(=O)Cn1nnc(-c2ccccc2)n1 | 106 | 91 | -7 | 99
CN(C)c1ccc(C(=NO)c2ccc(N(C)C)cc2)cc1 | 95 | 94 | -8 | .
CCOC(=O)c1sc2c(OC)c(Br)ccc2c1NC(C)=O | 85 | 85 | -19 | .
CCCNCc1ccccc1 | 89 | 95 | -13 | 103
COc1ccc(COC(=O)N/C=C/c2ccco2)cc1 | . | . | -10 | 132
Cc1ccc(NC(=O)Nc2ccc(-c3cc(Cl)ccc3Cl)o2)cc1 | 88 | 81 | -3 | .
CCOc1ccccc1CNC(=O)c1cc2cc3ccc(OC)c(Cl)c3nc2s1 | . | . | -33 | 97
O=C(O)/C=C/c1cc(F)cc2c1OCOC2 | 99 | 96 | -25 | .
CC1=C(C#N)C(c2ccc(-c3cccs3)s2)C2=C(CCCC2=O)N1 (centres undefined) | 98 | 63 | -9 | 100
O=C(c1ccc(F)cc1)N1CCc2ccccc2C1 | 96 | 83 | -7 | .
COc1ccc(-c2cn3c(n2)sc2cc(C(=O)Nc4ccc(F)cc4Cl)ccc23)cc1 | 106 | 80 | -5&-35 | 99&103
CCN(c1ccccc1C)S(=O)(=O)c1nnc(NC(=O)c2ccccc2C)s1 | 82 | 78 | -23 | 107
CCOc1ccccc1NC(=O)Nc1cc2c(cc1N1CCCCC1)n(CC)c(=O)n2CC | 74 | 77 | -10 | 102&97
Cc1ccc(OCC(=O)Nc2ccc(C(=O)OCc3cc(=O)n4ccsc4n3)cc2)cc1C | 85 | 85 | . | 101
CNC(=S)c1nc2ccccc2[nH]1 | 79 | 57 | -22 | 102
CC1CCCC(C)N1CCCNC(=O)C1CCN(c2ncnc3c2sc2cccc(F)c23)CC1 (centres undefined) | 90 | 93 | . | 106
N#Cc1cccc(NC(=O)COC(=O)Cn2nc(-c3ccccc3)oc2=O)c1 | 91 | 94 | -4 | .
NC(=O)CN1CCN(c2cccc(C(F)(F)F)c2)CC1 | 100 | 103 | 6 | 104
CCOc1nc2cnccc2n(CCN2CCOCC2)c1=O | 100 | 90 | -13 | 99

An excerpt from above in order of molecular weight, low to high:
SMILES | Sa growth inh | Sa growth inh second temp | HCMV UL50-53 inh | GIV Gai3 FP
CNC(=S)c1nc2ccccc2[nH]1 | 79 | 57 | -22 | 102
NC(=O)CN1CCN(c2cccc(C(F)(F)F)c2)CC1 | 100 | 103 | 6 | 104
CC1=C(C#N)C(c2ccc(-c3cccs3)s2)C2=C(CCCC2=O)N1 (centres undefined) | 98 | 63 | -9 | 100
N#Cc1cccc(NC(=O)COC(=O)Cn2nc(-c3ccccc3)oc2=O)c1 | 91 | 94 | -4 | .
COc1ccc(-c2cn3c(n2)sc2cc(C(=O)Nc4ccc(F)cc4Cl)ccc23)cc1 | 106 | 80 | -5&-35 | 99&103
Cc1ccc(OCC(=O)Nc2ccc(C(=O)OCc3cc(=O)n4ccsc4n3)cc2)cc1C | 85 | 85 | . | 101
CC1CCCC(C)N1CCCNC(=O)C1CCN(c2ncnc3c2sc2cccc(F)c23)CC1 (centres undefined) | 90 | 93 | . | 106

Source: PubChem BioAssay (ICCB-Longwood Screening Facility, Harvard Medical School)

Outcome played no part in choosing rows; 0.82% or so of the library scored in one or more.
